Vif A3G – inhibitors of Vif binding to APOBEC3G peptide, primary screen, biochemical, TR-FRET, GST-Vif 1-94, biotin-A3G peptide, dose response retest (AID 1117319); TR-FRET GST-Vif / biotin-A3G peptide binding; higher % means a stronger effect; test concentration not given here; strong numbers were not always called active; inhibition, %, or IC50 in µM where a hit was titrated; 260,000 tested, 0.57% active;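 active = above the screen mean plus three standard deviations and confirmed in dose response; inconclusive = results disagree or hit not tested in dose response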;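 note: Vif residues 1-94 fused to GST binding biotinylated APOBEC3G peptide 110-148; 0% = full assay without inhibitor and 100% = GST in place of GST-Vif; retest series ran down from 100 µM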
E coli growth – E. coli growth inhibition, primary screen, OD600 | 330,000 tested, 0.21% active | Escherichia coli growth, 23 h; stronger effect = lower value | AID 1053175, 2014 | OD600 absorbance (concentration not given with the values);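 active = OD600 absorbance below the run mean of sample wells minus 3.6 SD, in any replicate, cut at about 0.56 in these data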;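 note: stock transfer was 300 nL into about 60 µL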
UCH37 DUB inh – inhibitors of human UCH37 deubiquitinase, primary screen, biochemical, Ub-AMC cleavage, fluorescence; 330,000 tested, 0.33% active; Ubiquitin carboxyl-terminal hydrolase isozyme L5 (Homo sapiens), Q9Y5K5; inhibition, % (test concentration not listed); purified proteasome/UCH37;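 active = mean of two replicates above 20%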;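 note: 0% = compound-free wells with enzyme and 100% = wells lacking proteasome; stock transfer was 100 nL into about 20 µL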
Target sequence (Q9Y5K5 whole entry, looked up): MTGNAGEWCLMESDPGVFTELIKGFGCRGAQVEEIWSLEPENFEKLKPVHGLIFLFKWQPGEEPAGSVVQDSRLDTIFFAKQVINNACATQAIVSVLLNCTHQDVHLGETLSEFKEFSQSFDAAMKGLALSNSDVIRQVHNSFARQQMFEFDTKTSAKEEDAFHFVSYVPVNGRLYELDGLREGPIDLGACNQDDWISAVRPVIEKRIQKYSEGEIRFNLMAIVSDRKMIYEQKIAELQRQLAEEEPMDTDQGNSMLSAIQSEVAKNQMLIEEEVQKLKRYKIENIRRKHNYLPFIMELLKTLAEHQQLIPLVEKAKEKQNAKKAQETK
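Schedule: 30 min plus 25 min, room temperature / Material: human UCH37 within purified proteasomes / Technique: AMC fluorescence intensity at 355/460 nm / Buffer or medium: pH 7.4 Tris-HCl (50 mM) with ovalbumin, ATP-MgCl2, DTT / Controls: wells without proteasome as full block, compound-free enzyme plus substrate as uninhibited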
Beta2AR agonist – beta2AR agonists driving receptor internalization, primary screen, cell-based, FAP fluorogen, flow cytometry. Beta-2 adrenergic receptor (Homo sapiens), P07550. Am2.2-beta2AR cells; reference of the scale not given here. response, % (test concentration not listed). 340,000 tested, 0.43% active. AID 504454, 2011;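 active = response above a set limit, near 3 SD of response in nonfluorescent compounds, cut at about 42% in these data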;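 note: stock transfer was 100 nL into about 11 µL; a reference agonist was the positive control; negative values mostly stem from fluorescent compounds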
Target sequence (P07550 whole entry, looked up): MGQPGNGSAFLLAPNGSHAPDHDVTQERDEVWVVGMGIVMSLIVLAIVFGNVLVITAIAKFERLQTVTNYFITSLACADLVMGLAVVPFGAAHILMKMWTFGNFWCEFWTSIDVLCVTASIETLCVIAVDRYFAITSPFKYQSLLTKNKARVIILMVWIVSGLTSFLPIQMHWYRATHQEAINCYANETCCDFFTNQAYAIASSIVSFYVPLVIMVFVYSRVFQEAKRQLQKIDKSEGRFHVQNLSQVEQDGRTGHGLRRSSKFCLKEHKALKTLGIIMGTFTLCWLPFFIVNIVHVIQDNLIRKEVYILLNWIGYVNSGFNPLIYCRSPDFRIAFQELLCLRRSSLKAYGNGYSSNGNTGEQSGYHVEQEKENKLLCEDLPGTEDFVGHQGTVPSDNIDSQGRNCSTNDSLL
HNF4A DNA FP – change in binding of human HNF4A to DNA, primary screen, biochemical, fluorescence polarization, FITC-DNA | activity change, % at 10 µM | Hepatocyte nuclear factor 4-alpha (Homo sapiens), P41235 | 360,000 tested, 0.3% active | 1 h; in the data active = activity change above about 30%, passing the limit was not always enough;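 note: controls were the assay level and a saturating level of protein; the project sought stronger binding though the title names inhibitors; some compounds called inactive have numbers as strong as hits; positive values seem to mean higher polarization but the record does not say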
Bfl-1 A1 inh – caspase 3/7 activation in MEF A1-2A-BIM cells, primary screen, A1 inhibitor project, cell-based, luminescence, HTS; Caspase-Glo 3/7 luminescence, 3 h; percent of clofoctol response, vehicle zero; caspase activation, % (test concentration not listed); 330,000 tested, 0.066% active; AID 2462, 2010;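 active = over half of replicate activation scores above 10%, or exactly half above 10 with the replicate mean above 10; inconclusive = replicate mean below 10 yet half the replicates above 10; inactive = over half of replicates below 10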;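 note: wells of about 30 µL received 50 nL stock; many hits fall short of the cut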
LANA-H2B inh – blockers of LANA interaction with H2A/H2B – biochemical, FP readout, HTS, primary screen; Protein LANA1 (Human herpesvirus 8 type P (isolate GK18)), Q9QR71; cell-free LANA-H2A/H2B peptide, fluorescence polarization; inhibition, % (no concentration beside the values); 320,000 tested, 0.6% active; in the data active = inhibition mostly above about 10%, no sharp cut-off; inactive = mostly below about 6.7%;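 note: stock transfer was 7.5 nL into about 10 µL; 0% = median of vehicle wells and 100% = median of positive control wells; one replicate is shown; the record names a cut of 25% in any replicate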
* hit, by the source's call; u = inconclusive; x = no result given.

smiles	Beta2AR agonist	Vif A3G	HNF4A DNA FP	LANA-H2B inh	E coli growth	UCH37 DUB inh	Bfl-1 A1 inh
Cc1cc(C)nc(N/N=C/c2ccc3c(c2)OCCO3)n1	-6	-8%	-4.4	0.9	x	x	-0.5
CCCC(=O)Nc1cccc(-c2cn3ccsc3n2)c1	-20	16%	-0.9	-5.2	0.66	-0.6	-0.4
NC(=O)CCCn1c(C(=O)c2cc(Cl)c(N)c(Cl)c2)c2ccc([N+](=O)[O-])cc2[n+]1[O-]	-11	x	3.5	0.2	0.63	4.8	1.5
COc1ccc(NC(=O)c2cc(S(=O)(=O)N3CCCC3)ccc2C)cn1	-2	-14%	-5.2	3.1	0.62	2.4	u
CC1=C(C(=O)OCC2CCCO2)C(c2ccc(F)cc2)NC(=O)N1 (stereo not drawn)	-4	9%	0.5	3.2	0.69	1.2	0.6
Cc1cc(OCC(=O)Nc2cccc(S(=O)(=O)N3CCCC3)c2)ccc1Cl	0	5%	0.2	x	0.59	2.0	x
CCCCCCN1CC(O)=C(c2nc3ccccc3[nH]2)C1=N	6	17%	1.2	3.7	0.66	0.8	-0.2
COCCOC(=O)C1=C(C)NC(=O)NC1c1cccs1 (stereo not drawn)	4	-1%	0.8	-1.7	0.69	5.0	0.3
CC(C)C(c1nnnn1C(C)(C)C)N1CCN(c2cccc(Cl)c2)CC1 (stereo not drawn)	14	4%	3.2	-3.5	0.76	-0.1	1.0
Cc1ccc(C)c(S(=O)(=O)N2CCN(C(=O)CSc3ccccc3F)CC2)c1	1	x	-2.8	3.1	0.7	3.7	-0.6
CN1C(=O)NC(c2ccccc2[N+](=O)[O-])C2=C1CC(C)(C)CC2=O (stereo not drawn)	8	x	2.6	-2.6	0.65	5.6	0.1
CC(=O)N(C)c1ccc(NC(=S)Nc2cccc3ccccc23)cc1	6	x	-1.0	-2.2	0.69	5.0	0.1
CCOC(=O)C1=C(CSc2nc(-c3ccccc3)ccc2C#N)OC(N)=C(C#N)C1c1ccc(OC)cc1 (stereo not drawn)	-4	2%	39*	-7.4	0.81	-24	-0.3
CC(CNC(=O)C1CCCCC1)NC(=O)C1CCCCC1 (stereo not drawn)	1	3%	-0.5	-1.1	0.7	4.4	0.1
CCCc1c(C(=O)OCC)[nH]c2c1C(=O)CCC2	-10	1%	-1.2	36*	0.73	5.9	-0.4
Cc1ccc2c(c1)cc(C(=O)N1CCN(c3ccccn3)CC1)n2C	-1	x	4.0	4.3	0.68	2.5	0.0
Cc1ccc(Cn2c(=N)c(C(=O)NC3CCCCC3)cc3c(=O)n4ccccc4nc32)cc1	0	x	6.8	-2.8	0.69	-136	0.2
COc1ccc(NS(=O)(=O)c2cc(NC(=O)/C=C/c3cc(OC)ccc3OC)ccc2N2CCCCC2)cc1	0	10%	1.1	-5.5	0.68	-72	0.4
COC(=O)CSC1=NS(=O)(=O)c2ccccc21	5	31%	-2.5	-2.7	x	x	0.8
COc1ccc2nc(NC(=O)CSc3nnnn3C)sc2c1	15	x	0.7	-0.8	0.67	1.6	-0.8
COc1ccc(OC)c(S(=O)(=O)NC2CC(=O)N(c3ccc(C)c(C)c3)C2)c1 (stereo not drawn)	-2	0%	1.8	2.5	0.7	2.5	-0.3
Cc1ccc(/C=C2\SC(=S)N(CCC(=O)N3CCOCC3)C2=O)cc1	2	-13%	-0.7	-2.4	0.71	6.1	1.2
O=S(=O)(c1ccc(NC(=S)NN=C(C2CC2)C2CC2)cc1)N1CCOCC1	-6	x	-3.3	-4.0	0.64	0.4	0.1
CCn1c(O)c(N=NC(=O)c2cccc(S(=O)(=O)N3CCCCC3)c2)c2ccccc21	-6	x	2.3	2.3	0.67	5.9	-1.2
O=c1c2cc(N3CCOCC3)ccc2[nH]c(=S)n1Cc1cccc(Cl)c1	-4	14%	-1.9	-1.4	0.69	-1.5	1.2
O=C(Nc1nnc(-c2ccccc2)s1)c1ccccc1F	-5	x	-3.0	1.6	0.78	-1.4	-1.3
Cc1c(/C(O)=C2\C(=O)C(=O)N(CCCN(C)C)C2c2cccs2)cnn1-c1ccccc1 (stereo not drawn)	3	x	2.4	x	0.71	35*	x
COc1ccc(CNC(=O)[C@H](C)NC(=O)C2CCN(S(=O)(=O)c3ccc(C)cc3)CC2)cc1	2	-2%	0.4	6.2	0.71	6.7	1.9
Cc1cccc(NC(=O)COc2ccccc2)c1	7	17%	-0.2	0.3	0.64	5.1	-2.0
CC(C)c1ccc(S(=O)(=O)N2CCN(CC(=O)Nc3ccc(Cl)cc3F)CC2)cc1	6	-15%	-0.1	-0.5	0.7	4.0	-0.7
Cc1cccc2sc(N(CCCN(C)C)C(=O)c3ccc4ncsc4c3)nc12	11	x	-0.5	0.8	0.72	1.9	-0.9
COc1ccccc1CNC(=O)c1nccnc1CO	-3	-5%	-1.1	1.8	0.71	2.4	0.1
COc1ccccc1NC(=O)COC(=O)c1oc2ccccc2c1C	3	0%	-0.6	-1.7	0.72	2.0	0.0
Cc1c(Cc2ccc3c(c2)OCO3)sc(NC(=O)C2CC2)c1C(N)=O	-2	x	-0.8	-1.0	0.65	3.0	0.6
Cc1ccc(CSCCNC(=O)CN(c2cc(C)ccc2C)S(C)(=O)=O)cc1	6	-3%	4.2	-3.6	0.67	4.5	0.7
CCOC(=O)COc1cccc2c(=O)n(CC(=O)N3CCN(C(=O)OCC)CC3)ccc12	1	3%	5.0	11	0.7	-3.1	0.3
O=C(NCCC(=O)N1CCN(c2ccccc2F)CC1)c1ccco1	-1	3%	-0.3	5.6	0.68	0.8	0.5
Cc1ccccc1NC1=C/C(=N\S(=O)(=O)c2cccs2)c2ccccc2C1=O	26	9%	4.1	0.5	0.67	78*	0.0
Cc1cccc(-c2ncc(CN3CCN(C4CCCC4)C(CCO)C3)cn2)c1 (stereo not drawn)	3	4%	-5.5	-1.0	0.69	3.9	0.0
COc1ccccc1C(=O)NC(=O)CSc1nnnn1C	-3	x	5.6	1.5	0.69	-0.8	0.4

One compound at a time (already shown). Order of screens: Beta2AR agonist, Vif A3G, HNF4A DNA FP, LANA-H2B inh, E coli growth, UCH37 DUB inh, Bfl-1 A1 inh
Results for Cc1cccc(-c2ncc(CN3CCN(C4CCCC4)C(CCO)C3)cn2)c1 (stereo not drawn) = 3, 4%, -5.5, -1.0, 0.69, 3.9, 0.0
Results for NC(=O)CCCn1c(C(=O)c2cc(Cl)c(N)c(Cl)c2)c2ccc([N+](=O)[O-])cc2[n+]1[O-] = -11, x, 3.5, 0.2, 0.63, 4.8, 1.5
Results for O=C(NCCC(=O)N1CCN(c2ccccc2F)CC1)c1ccco1 = -1, 3%, -0.3, 5.6, 0.68, 0.8, 0.5

As a working copy, part of the list above:
smiles	Beta2AR agonist	Vif A3G	HNF4A DNA FP	LANA-H2B inh	E coli growth	UCH37 DUB inh	Bfl-1 A1 inh
Cc1ccccc1NC1=C/C(=N\S(=O)(=O)c2cccs2)c2ccccc2C1=O	26	9%	4.1	0.5	0.67	78*	0.0
Cc1cccc(-c2ncc(CN3CCN(C4CCCC4)C(CCO)C3)cn2)c1 (stereo not drawn)	3	4%	-5.5	-1.0	0.69	3.9	0.0

(cont.)
smiles	Beta2AR agonist	Vif A3G	HNF4A DNA FP	LANA-H2B inh	E coli growth	UCH37 DUB inh	Bfl-1 A1 inh
COc1cccc(NC(=O)COC(=O)/C=C/c2ccco2)c1	0	19%	-3.0	x	0.7	4.0	x
CSc1ncccc1C(=O)N1CCCC(C(=O)c2cc(F)ccc2F)C1 (stereo not drawn)	-1	2%	1.2	2.8	0.68	6.1	0.8
c1ccc(COc2ccccc2CNC23CC4CC(CC(C4)C2)C3)cc1	7	-13%	-0.9	-3.3	0.62	2.8	-1.2
C/C(=N/NC(=O)c1cccs1)c1cccs1	-2	4%	-3.1	-4.5	x	x	-5.9
COc1ccc(N2CCN(C(=O)CN3C(=O)NC4(CCCCCC4)C3=O)CC2)cc1	2	0%	5.7	-3.9	0.63	2.5	0.0
CN(CC(=O)Nc1ccccc1Cl)C1CCS(=O)(=O)C1 (stereo not drawn)	-11	-1%	0.8	-3.0	0.65	5.6	1.3
CCC(CC)C(=O)N1CC(=O)Nc2ccc(F)cc2C1c1ccccc1 (stereo not drawn)	-1	-1%	-2.7	1.6	0.65	0.2	0.3
Cc1cccnc1Nc1nc(-c2ccc(O)cc2O)cs1	4	u	1.4	0.9	0.71	2.4	-1.4
c1ccc(-c2csc(N3CCc4ccccc4C3)n2)cc1	9	-1%	4.5	1.0	0.74	-0.2	0.5
S=C(NCc1ccccc1)NCc1ccccn1	2	-5%	1.1	-0.6	0.68	0.0	0.1
C/C(=N\NC(=O)CC1(C)OCCO1)c1cccs1	3	x	3.4	1.6	x	x	-0.2
COc1ccc(SC[C@H](C)CN2CC[C@H](NC(=O)OCc3ccccc3)CCC2=O)cc1	-4	x	1.6	11	x	0.4	1.9
O=C(O)COc1ccccc1/C=N/NC(=O)C(O)c1ccccc1 (stereo not drawn)	-3	x	-1.6	-2.3	x	x	0.7
CC(NC(=O)Nc1ccc(Cl)cc1)c1ccc2c(c1)OCO2 (stereo not drawn)	-5	x	0.2	0.0	0.71	5.1	1.1
COc1ccc(C(=O)N2CCCC(O)C2)cc1OC1CCN(C(C)C)CC1 (stereo not drawn)	3	x	-1.2	4.5	0.72	1.3	-1.2
COc1cccc(-c2sc3ccccc3c2-c2ccc(OCCN3CCCC3)cc2)c1	20	x	4.4	8.4	x	x	-0.1
CC1=NNC(=O)C1C(c1cccc(O)c1)C(C#N)C#N (stereo not drawn)	9	x	-1.4	7.2	0.7	3.6	0.5
Cn1c(=O)c2c(ncn2CC(COCc2ccc(Cl)cc2)OCc2ccc(Cl)cc2)n(C)c1=O (stereo not drawn)	1	-7%	-1.1	-2.2	0.74	-1.2	1.0
CCCC(=O)Nc1ccccc1NC(=O)c1cc(OC)c(OC)c(OC)c1	-2	-1%	0.0	4.4	0.69	0.6	-0.1
N#C/C(=C(/O)Cc1cccc2ccccc12)c1nc2ccccc2s1	16	1%	-1.4	1.0	0.74	-25	0.3
O=c1c2ccccc2c(/C=N/c2nnc(Cc3ccccc3)s2)c(O)n1-c1ccc(Cl)cn1	6	3%	86*	2.8	x	x	-0.2
Cc1cc(C(=O)OCC(=O)NC(C)C)c(C)o1	2	-1%	-0.3	1.6	0.74	4.4	0.2
Cc1ccc2oc(C(=O)NCc3ccccc3)cc(=O)c2c1	0	-3%	-1.6	1.7	0.71	-0.2	0.0
O=C(OCC(=O)N1CCc2ccccc21)c1c2c(nc3ccccc13)CCCC2	18	x	2.6	1.4	0.68	1.2	-0.3
CCOC(=O)Cc1csc(NC(=O)C(CC(C)C)NC(=O)C2CCCCC2)n1 (stereo not drawn)	5	x	-0.4	-2.8	0.67	2.1	0.1
CCC(=O)N(CCC(c1ccco1)c1ccccc1OC)Cc1cccs1 (stereo not drawn)	3	7%	4.2	-4.4	0.75	2.5	0.5
